GIV Gai3 FP: blocks GIV peptide binding to rat Galpha-i3. P08753. Galpha-i3/FITC-GIV peptide fluorescence polarization, 90 min; active compounds read low; scaled: aluminum fluoride 0%, vehicle 100%. percent of control (FP), % (no concentration beside the values). 210,000 tested, 0.42% active. AID 1224905;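 active = replicate mean at 85% of control or lower, very high polarization wells dropped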;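 also: wells of about 15 µL received 100 nL stock; the first replicate is given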
Target sequence (P08753 whole entry, looked up): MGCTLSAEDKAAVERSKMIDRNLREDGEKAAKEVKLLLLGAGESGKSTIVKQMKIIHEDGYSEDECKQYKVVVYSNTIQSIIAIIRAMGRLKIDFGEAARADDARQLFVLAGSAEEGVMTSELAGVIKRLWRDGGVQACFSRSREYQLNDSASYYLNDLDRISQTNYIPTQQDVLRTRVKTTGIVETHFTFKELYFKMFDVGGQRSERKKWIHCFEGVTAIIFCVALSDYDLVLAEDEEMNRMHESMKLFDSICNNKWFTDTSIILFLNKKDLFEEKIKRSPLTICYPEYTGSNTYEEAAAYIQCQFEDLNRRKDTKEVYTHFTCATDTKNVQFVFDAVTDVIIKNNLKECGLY
* marks the source's active call; other numbers are inactive results. The list is partial. The share of hits here may be higher or lower than overall.

SMILES	GIV Gai3 FP
CC12c3ccccc3C(c3ccccc31)C1C(=O)N(CCO)C(=O)C12 (configuration not stated)	105.4
CC1(C(=O)NCc2ccc(F)cc2)CCCN(C(=O)Nc2ccc(Br)cc2F)C1 (configuration not stated)	110.6
O=C1c2ccccc2-c2onc3c(Sc4ccccc4)cc(Sc4ccccc4)c1c23	107.6
CCS(=O)(=O)c1nc2ccc(NS(=O)(=O)c3ccc4c(c3)OCCO4)cc2s1	101.3
CN1CCN(C(=O)CSc2nc(-c3ccccc3Cl)cc(-c3ccccc3)c2C#N)CC1	101.4
CN1CCn2cc(S(=O)(=O)N3CCN(c4ccccc4)CC3)cc2C1=O	106.0
O=C1CC(c2ccc3c(c2)OCO3)c2cnn(-c3nc4ccccc4s3)c2N1 (configuration not stated)	102.4
CC(C)(C)c1csc(-c2csc(S(=O)(=O)Nc3ccc(F)c(F)c3)c2)n1	109.1
CNC(=O)N(C)c1nnc(C(C)(C)C)o1	107.4
COc1ccc(S(=O)(=O)Nc2ccc3c(c2)c(C(C)=O)c(C)n3S(=O)(=O)c2ccc(OC)cc2)cc1	105.0
NC(=O)C1C2CCCC1C2c1ccccc1 (configuration not stated)	102.9
COc1cc(/C=C2\SC(=S)N(CCC(=O)Nc3ccccc3O)C2=O)cc(OC)c1OC	109.2
Cc1nc(N2CCN(c3ccc([N+](=O)[O-])cc3)CC2)c2c3c(sc2n1)CCCC3	107.5
CCCS(=O)(=O)c1c(S(=O)(=O)CCC)c2c3ccccc3ccn2c1C(=O)N/N=C/c1ccccc1	96.6
CC(C)NC(=O)Cn1ncc2c(c1=O)N(C)C(=O)CS2	99.7
COc1ccc(Br)cc1/C=C1/N=C(c2ccc(OC)c(OC)c2)OC1=O	-11.5*
CCc1onc(C)c1C1CCCN1C(=O)NCCC(C)C (configuration not stated)	97.1
O=C(CCN1CCOCC1)Nc1cc(C(=O)N2CCc3ccccc3C2)ccc1N1CC2CC(C1)c1cccc(=O)n1C2 (configuration not stated)	113.0
CCCOC(=O)c1sc2nc3c(c(-c4ccco4)c2c1N)CCCCC3	109.7
O=C(Cn1c(=O)n2nc(-c3ccccc3)nc2c2ccccc21)c1c[nH]c2ccccc12	108.8
COc1ccc(OC)c(NC(=O)N2CCN(c3nc4ccccc4n4cccc34)CC2)c1	98.0
Cc1ccc(C2C3=C(CC(C)(C)CC3=O)Nc3ccccc3N2CC(=O)Nc2cc(C)on2)cc1 (configuration not stated)	101.9
COC(=O)C1=NNC2C(=O)N(c3ccc(Br)cc3)C(=O)C12 (configuration not stated)	102.6
CCOC(=O)C1=NN(c2ccc(OC)cc2)C2C(=O)N(c3ccccc3)C(=O)C12 (configuration not stated)	107.1
CC1(C)c2ssc(=S)c2-c2ccccc2N1C(=O)CN1CCOCC1	106.3
O=[N+]([O-])c1cccc(-c2nc(-c3ccccc3)c(-c3ccc(Oc4ccccc4)cc3)[nH]2)c1	114.6
O=C(NCCC1=CCCCC1)C1CCN(c2ncccc2S(=O)(=O)N2CCCCC2)CC1	104.5
O=C(CCc1c[nH]c2ccccc12)Nn1c(SCC(=O)c2ccccc2)nc2ccccc2c1=O	107.8
CCC(=O)N1CCCC(C(=O)N2CCCC2)C1 (configuration not stated)	105.3
Fc1ccc(CNC2=NCCNC23CCCCC3)cc1Cl	99.7
CCOC(=O)c1c(NC(=O)Cn2nc([N+](=O)[O-])c(Br)c2C)sc2c1CCC2	108.8
CN(C)C(=O)c1ccc2c(c1)CCN2C(=O)C1CC1	100.3
Cc1cc(C)c2c(n1)sc1c(=O)n(CC(=O)Nc3ccc(F)cc3F)cnc12	106.1
Cn1c(=O)n(CC(=O)NCCC2=CCCCC2)c(=O)c2ccccc21	119.5
COc1ccc(-c2cnn3c(SCC(=O)NC4CC4)cc(C)nc23)cc1	97.8
CCn1nnc2c(N3CCCc4ccccc43)ncnc21	96.3
CC(C)CCNC(=O)N1CCC(N2CCN(Cc3ccc(F)cc3)C2=O)CC1	105.3
Cc1cc(C)c(S(=O)(=O)N2CCN(S(=O)(=O)c3ccccc3)C2c2ccccc2)c(C)c1 (configuration not stated)	107.0
CCN(CC)CC(O)Cn1c(-c2ccccc2)c(-c2ccccc2)c2ccc3ccccc3c21 (configuration not stated)	106.5
CC(C)N1CCN(S(=O)(=O)c2cc(-c3nnc(C4CC4)o3)co2)CC1	107.2
CCC1Oc2ccc(Cl)cc2N(CC(=O)N2CCN(Cc3noc4ccccc34)CC2)C1=O (configuration not stated)	106.7
O=S(=O)(c1ccc(Cl)cc1)N1CCC2(CC1)NCCN=C2NC1CCCC1	99.6
CCOC(=O)c1nc(Nc2ccc(Br)cc2)c2c(C)c(C)n(-c3ccccc3)c2n1	99.5
O=C(CN1CCN(C(=O)Nc2ccc(F)cc2)CC1=O)NCc1cccc(Cl)c1	102.2
COc1ccc(C2C=C(c3cccc(Br)c3)Nc3nc4ccccc4n32)cc1 (configuration not stated)	102.3
CCCC1=C(C(=O)OCC)C(c2cccc([N+](=O)[O-])c2)C(C#N)=C(N)O1 (configuration not stated)	108.8
CC1CC(C)CN(C(=O)c2ccc(NCc3cccs3)c(S(=O)(=O)Nc3cc(F)ccc3F)c2)C1 (configuration not stated)	113.3
CC(=O)c1ccc(N2C(=O)c3cccc4c(Br)c([N+](=O)[O-])cc(c34)C2=O)cc1	100.3
O=C(NCCc1csc(-c2ccccc2)n1)[C@H]1CCCN1C(=O)Cc1ccc(Cl)cc1	98.3
Cc1noc(/C=C/c2ccc(S(=O)(=O)N3CCCC3)s2)c1NC(=O)C1CC1	96.8
S=C(NN=C1CSc2sc(=S)sc2SC1)Nc1ccccc1	108.1
Cc1cccc(Cn2nc3c(S(=O)(=O)N4CCOCC4)cccn3c2=O)c1	106.3
COc1ccc(NC(=O)Nc2nnc(SCC(=O)Nc3ccc(OC)cc3OC)s2)cc1	100.0
Cc1cc(C)c(/C=c2/sc3nc4cc(Br)cnc4n3c2=O)cc1C	99.8
CC12CC(c3ccccc3O1)C(c1nnc(-c3cccc(F)c3)o1)C(=O)N2 (configuration not stated)	101.4
CCc1ccccc1NC(=O)C1CCCN1S(=O)(=O)c1cc2c(cc1C)NC(=O)CO2 (configuration not stated)	100.8
CCOC(CNC(=O)c1c[nH]c2ccc(S(=O)(=O)N(C)c3cc(C)ccc3C)cc2c1=O)OCC	103.0
CCc1ccc(N=c2ssc3c2-c2cc(C)c(C)cc2NC3(C)C)cc1	115.5
CCOC(=O)c1nc2cc3n(c(C)c-2c1C)C(C)C=C3C (configuration not stated)	110.8
CC(=O)c1sc(N2N=C(c3cccs3)CC2c2ccco2)nc1C (configuration not stated)	109.2

Later entries:
SMILES	GIV Gai3 FP
Cc1ccccc1C(=O)Nc1ccc2c3c1C1C=CCC1CN3CC1CC=CC21 (configuration not stated)	106.0
COc1ccc(C2=NN3C(C2)c2cc(Br)ccc2OC32C(=O)Nc3ccccc32)cc1 (configuration not stated)	113.9
CCN(CC)C1c2cccc3cccc(c23)C1NS(=O)(=O)c1ccc(Cl)cc1 (configuration not stated)	108.7
CCOC(=O)N1CCN(C(=O)c2cnn3c(C(F)(F)F)cc(-c4ccc(OC)c(OC)c4)nc23)CC1	102.7
Cc1cc(S(=O)(=O)Nc2cc(C(=O)NCc3ccco3)ccc2N2CC3CC(C2)c2cccc(=O)n2C3)ccc1F (configuration not stated)	106.5
N#CC1=CN(c2ccc(F)cc2Cl)c2cc(F)ccc2S1(=O)=O	99.9
Cc1ccccc1NC(=O)CCc1nc(-c2ccc(S(=O)(=O)N3CCCC3)cc2)no1	110.2
CCC(=O)Nc1cccc(-c2noc(C3CCCN(C(=O)c4cccc(NC(C)=O)c4C)C3)n2)c1 (configuration not stated)	104.1
COc1ccccc1NS(=O)(=O)c1cc(-c2cc(C(F)(F)F)on2)sc1C	97.6
O=c1[nH]c(N2CCc3ccccc3C2)nc2c(-c3ccc(Br)cc3)csc12	102.2
CCOC(=O)c1c(NC(=O)C(C)Sc2nnc(CNC(=O)c3ccccc3C(F)(F)F)n2C)sc2c1CCC2 (configuration not stated)	110.0
Cc1ccc(/C(O)=C2\C(=O)C(=O)N(c3nncs3)C2c2ccccc2Cl)cc1 (configuration not stated)	119.6
CCc1ccc(N2CC(O)(c3cccc([N+](=O)[O-])c3)[N+]3=C2SCCC3)cc1 (configuration not stated)	103.8
O=C(Nc1ccc(N2CCOCC2)cc1)c1ccc(Oc2ccnc(-c3ccc(F)cc3)n2)cc1	102.1
Cc1ccc(C2CC(c3ccc(Br)cc3)=NN2C(=O)CSc2nnc(CNC(=O)c3ccco3)n2C)cc1 (configuration not stated)	104.7
CC(C)Cn1cc(C(=O)O)c(S(=O)(=O)N2CCN(C(C)C)CC2)n1	105.9
Cc1ccc(Cl)cc1N1CCN(CCCNC(=O)c2csc(-c3ccncc3)n2)CC1	104.9
O=S(=O)(c1cccnc1)N1CCCC2(C1)Nc1cccnc1NC2=NC1CCCC1 (configuration not stated)	103.9
Cc1ccc(-n2ncc3c(N4CCN(Cc5ccccc5)CC4)ncnc32)c(C)c1	104.6
CCOC(=O)C1=C(C)NC2=C(C(=O)C(C(=O)OCC)C(c3ccc(OC)cc3)C2)C1c1cccc([N+](=O)[O-])c1 (configuration not stated)	99.4

A portion from further up, as a working copy:
SMILES	GIV Gai3 FP
Cc1ccccc1NC(=O)CCc1nc(-c2ccc(S(=O)(=O)N3CCCC3)cc2)no1	110.2
CCC(=O)Nc1cccc(-c2noc(C3CCCN(C(=O)c4cccc(NC(C)=O)c4C)C3)n2)c1 (configuration not stated)	104.1
COc1ccccc1NS(=O)(=O)c1cc(-c2cc(C(F)(F)F)on2)sc1C	97.6
O=c1[nH]c(N2CCc3ccccc3C2)nc2c(-c3ccc(Br)cc3)csc12	102.2
CCOC(=O)c1c(NC(=O)C(C)Sc2nnc(CNC(=O)c3ccccc3C(F)(F)F)n2C)sc2c1CCC2 (configuration not stated)	110.0
Cc1ccc(/C(O)=C2\C(=O)C(=O)N(c3nncs3)C2c2ccccc2Cl)cc1 (configuration not stated)	119.6
CCc1ccc(N2CC(O)(c3cccc([N+](=O)[O-])c3)[N+]3=C2SCCC3)cc1 (configuration not stated)	103.8
O=C(Nc1ccc(N2CCOCC2)cc1)c1ccc(Oc2ccnc(-c3ccc(F)cc3)n2)cc1	102.1
Cc1ccc(C2CC(c3ccc(Br)cc3)=NN2C(=O)CSc2nnc(CNC(=O)c3ccco3)n2C)cc1 (configuration not stated)	104.7
CC(C)Cn1cc(C(=O)O)c(S(=O)(=O)N2CCN(C(C)C)CC2)n1	105.9
Cc1ccc(Cl)cc1N1CCN(CCCNC(=O)c2csc(-c3ccncc3)n2)CC1	104.9
O=S(=O)(c1cccnc1)N1CCCC2(C1)Nc1cccnc1NC2=NC1CCCC1 (configuration not stated)	103.9
Cc1ccc(-n2ncc3c(N4CCN(Cc5ccccc5)CC4)ncnc32)c(C)c1	104.6
CCOC(=O)C1=C(C)NC2=C(C(=O)C(C(=O)OCC)C(c3ccc(OC)cc3)C2)C1c1cccc([N+](=O)[O-])c1 (configuration not stated)	99.4

Going on with the list.
SMILES	GIV Gai3 FP
CC(C)C(C(=O)OCC(=O)c1cccc([N+](=O)[O-])c1)N1C(=O)C2C3C=CC(C3)C2C1=O (configuration not stated)	103.1
COC(=O)C1=C(N)N(c2ccc(Br)cc2)C2=C(C(=O)CCC2)C1c1ccc(OC)c(OC)c1 (configuration not stated)	105.9
COc1ccc(OC)c(C2C=C(Nc3ccc(C)cc3)C(=O)N2c2ccc(C)cc2)c1 (configuration not stated)	107.2
COC(=O)c1c(NC(=O)N2CCCC2c2cc(C)no2)sc2c1CCCC2 (configuration not stated)	101.1
CC(C)c1ccc(C2OC3(C(=O)c4ccccc4C3=O)C3C(=O)N(c4ccc(F)cc4)C(=O)C23)cc1 (configuration not stated)	119.8
CCOCCCNC(=O)N1CCCC(C)(C(=O)NCc2ccc(C)cc2)C1 (configuration not stated)	108.6
CN(C)S(=O)(=O)c1ccc2c(c1)cc(C(=O)NCCCN1CCOCC1)n2Cc1ccncc1	101.1
Cc1ccc(C)c(N2CCN(S(=O)(=O)c3ccc(-c4nnc(C5CC5)o4)o3)CC2)c1	109.1
COc1cccc2cc(-c3csc(NC(=O)CCC(=O)N4CCC(C(N)=O)CC4)n3)c(=O)oc12	112.2
CCn1c(=S)sc2c(=O)n(-c3ccccc3)c(SCC(=O)NCc3ccco3)nc21	110.6
O=C1c2c(Cl)c(Cl)c(Cl)c(Cl)c2C(=O)N1C1C(=O)N(c2ccc(Cl)c(Cl)c2)C1c1cccs1 (configuration not stated)	113.0
O=C(NCCCN1CCCC1=O)c1ccc2c(=O)n(-c3cccc(C(F)(F)F)c3)c(=S)[nH]c2c1	113.5
c1cc2nnc(C3CC3)n2nc1N1CCCC1	102.8
Cn1cnc2cc(-c3noc(-c4ccc5c(c4)OCO5)n3)ccc21	96.2
CC1(C)CC2(CC(c3ccccc3)Oc3cc(O)ccc32)NC(=O)N1 (configuration not stated)	114.3
Cc1sc(C)c(S(=O)(=O)NCC(C)c2ccccc2)c1-c1cc(C(F)(F)F)on1 (configuration not stated)	106.1
NC(=O)C1(N2CCCCC2)CCN(c2ncc(S(=O)(=O)c3ccccc3)c(N)n2)CC1	107.6
Cc1cc(N2CCCC2)n2nc(CN3CCc4ccccc4C3)nc2n1	107.5
Cc1sc(-c2cc(C(F)(F)F)[nH]n2)cc1S(=O)(=O)NC1CCCC1	101.0
COc1cccc(C2N(c3ccccc3)N=C(C(C)=O)N2c2ccc(C)c(C)c2)c1OCc1ccccc1 (configuration not stated)	111.4

Continued, starting with the last two of the part before.
SMILES	GIV Gai3 FP
Cc1sc(-c2cc(C(F)(F)F)[nH]n2)cc1S(=O)(=O)NC1CCCC1	101.0
COc1cccc(C2N(c3ccccc3)N=C(C(C)=O)N2c2ccc(C)c(C)c2)c1OCc1ccccc1 (configuration not stated)	111.4
Cc1cccc(N2CCN(c3cccc(C)c3)C2c2cccc([N+](=O)[O-])c2)c1	105.2
COc1ccc2c(c1)c1nc(SCC(N)=O)n(C)c(=O)c1n2C	96.2
CCC(=O)c1cn(CC(=O)NCc2cc3c(cc2C)OCCCO3)c2ccccc12	104.1
O=C(NCc1ccccc1Cl)c1nc(N2CCCC2)c2oc3ccccc3c2n1	104.3
Cc1ccccc1CC1S/C(=N/c2ccccn2)NC1=O (configuration not stated)	103.1
CC(C)(C)c1cc(C(=O)CN2C3=NCCN3c3ccccc32)cc(C(C)(C)C)c1O	115.2
